Source: PubChem BioAssay
CFTR F508del: total CFTR protein upregulators, primary screen, cell-based, HeLa F508del-CFTR, immunofluorescence, viability (AID 1224863) | HeLa F508del-CFTR, immunofluorescence total CFTR, 24 h; by the record results were divided by relative cell number; some inactives read as strong as hits | calls, or highest fold increase where a dose series was run | hit rate 0.1% among 10,000; in the data nearly all actives have a first-pass fold increase above 1.5; a few of its hits are not listed in these tables;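 note: total CFTR protein by anti-CFTR immunofluorescence in fixed cells; first pass at 25 µM or 10 µg/mL by library and series up to twice that; 1 = untreated cells; first-pass hits also needed half or more of the cells alive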
CFTR F508del fold 25 µM: second read-out of CFTR F508del, no call of its own (marks repeat the call); fold increase; measured here: primary screen single dose 25 uM; library dosed in µM
CFTR F508del fold 10 ug/mL: second read-out of CFTR F508del, no call of its own (marks repeat the call); fold increase; measured here: primary screen 10 ug/mL
CFTR F508del viability 25 µM: further read-out of CFTR F508del, marked with its call; viability, %; measured here: primary viability 25 uM; library dosed in µM;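 0% = killed and 100% = untreated cells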
CFTR F508del viability 10 ug/mL: also measured in CFTR F508del; calls as there; viability, %; measured here: primary viability 10 ug/mL;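 0% = killed and 100% = untreated cells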
Numbers without * were called inactive; i = inactive; . = no result given; & = joins results of further samples. These rows are one share of the data; rates above refer to the full screens.

SMILES	CFTR F508del	CFTR F508del fold 10 ug/mL	CFTR F508del viability 10 ug/mL	others
Cc1cc(Cl)c(C)c(S(=O)(=O)NC(C)C2CCCO2)c1Cl (centres undefined)	i	0.97	93
CN1CCCCC1CCN1c2ccccc2Sc2ccc(S(C)=O)cc21 (centres undefined)	i	.	.	CFTR F508del fold 25 µM=0.98&1.1;CFTR F508del viability 25 µM=97&99
COc1ccc(CNc2nc3sccn3c2[N+](=O)[O-])cc1OC	i	0.99	87
O=C1C(=O)N(CN2CCN(c3ccccn3)CC2)c2cc3c(cc21)OCCO3	i	0.9	95
O=S(=O)(NC1CCN(C2CC2)CC1)c1cccc(Cl)c1	i	0.96	93
O=C1CCCN1c1ccc(S(=O)(=O)N2CCCc3cc(F)cc(F)c32)cc1	i	0.78	83
FC(F)(F)C(Cl)Br (centres undefined)	i	.	.	CFTR F508del fold 25 µM=1.1;CFTR F508del viability 25 µM=93
Nc1ccn([C@H]2CC[C@@H](CO)O2)c(=O)n1	i	.	.	CFTR F508del fold 25 µM=1.1&0.99&0.98;CFTR F508del viability 25 µM=73&109&92
CN(Cc1nc2ccccc2n1C(F)F)Cn1ncn(C)c1=S	i	1.1	93
CCCCC(=O)O[C@]1(C(=O)CO)CCC2C3CCC4=CC(=O)CC[C@]4(C)C3[C@@H](O)C[C@@]21C (some centres undefined)	i	.	.	CFTR F508del fold 25 µM=1.1;CFTR F508del viability 25 µM=85
Cc1sc2ncnc(NCC(C3CCOC3)N3CCOCC3)c2c1C (centres undefined)	i	1.1	92
C=CCNc1nnc(SCc2cccc3ccccc23)s1	i	0.95	80
CCSc1nnc(SCCn2nc3ccccn3c2=O)s1	i	1.1	99
Cc1cc(C(=O)OC(C)C(N)=O)c(C)n1CC(F)(F)F (centres undefined)	i	1.1	88
CCOC(=O)/C=c1/s/c(=C/c2ccsc2)c(=O)n1CC(=O)c1cc(C)n(Cc2ccco2)c1C	i	0.74	73
O=C(CC12CC3CC(CC(C3)C1)C2)Nc1nnc(C2CC2)s1	i	0.95	91
Cc1occc1-c1nnc(SCc2coc(-c3ccccc3)n2)o1	i	0.92	95
Clc1cc(CNCc2cccnc2N2CCOCC2)cc2c1OCCO2	i	0.91	91
O=S(=O)(Nc1ccc2c(c1)OCCO2)c1cc(Cl)cc(Cl)c1	i	0.98	97
N#Cc1ccc(F)c(COC(=O)C23CC4CC(CC(O)(C4)C2)C3)c1	i	1.1	101

Quoted at random: 2 records from the list, in no set order.
SMILES	CFTR F508del	CFTR F508del fold 10 ug/mL	CFTR F508del viability 10 ug/mL	others
Cc1cc(Cl)c(C)c(S(=O)(=O)NC(C)C2CCCO2)c1Cl (centres undefined)	i	0.97	93
FC(F)(F)C(Cl)Br (centres undefined)	i	.	.	CFTR F508del fold 25 µM=1.1;CFTR F508del viability 25 µM=93

Not a retest: 6 of the compounds above.
SMILES	CFTR F508del	CFTR F508del fold 10 ug/mL	CFTR F508del viability 10 ug/mL	others
Cc1cc(Cl)c(C)c(S(=O)(=O)NC(C)C2CCCO2)c1Cl (centres undefined)	i	0.97	93
CN1CCCCC1CCN1c2ccccc2Sc2ccc(S(C)=O)cc21 (centres undefined)	i	.	.	CFTR F508del fold 25 µM=0.98&1.1;CFTR F508del viability 25 µM=97&99
COc1ccc(CNc2nc3sccn3c2[N+](=O)[O-])cc1OC	i	0.99	87
O=C1C(=O)N(CN2CCN(c3ccccn3)CC2)c2cc3c(cc21)OCCO3	i	0.9	95
O=S(=O)(NC1CCN(C2CC2)CC1)c1cccc(Cl)c1	i	0.96	93
O=C1CCCN1c1ccc(S(=O)(=O)N2CCCc3cc(F)cc(F)c32)cc1	i	0.78	83

The listing picks up; the 2 compounds before the break are reprinted first.
SMILES	CFTR F508del	CFTR F508del fold 10 ug/mL	CFTR F508del viability 10 ug/mL	others
O=S(=O)(Nc1ccc2c(c1)OCCO2)c1cc(Cl)cc(Cl)c1	i	0.98	97
N#Cc1ccc(F)c(COC(=O)C23CC4CC(CC(O)(C4)C2)C3)c1	i	1.1	101
Cc1csc(SCCCc2nc3sc(C)c(C)c3c(=O)[nH]2)n1	i	1.1	71
N#CCSc1nnnn1C1CCCCC1	i	1	104
CC(Nc1ccc(S(C)(=O)=O)cc1[N+](=O)[O-])c1ccc2c(c1)OCO2 (centres undefined)	i	1	106
Cn1c(=O)c2c(ncn2CC(=O)N(CCC#N)Cc2ccco2)n(C)c1=O	i	1.1	93
Cc1cc(C(=O)COC(=O)C23CCC(=O)N2c2ccccc2C(=O)N3C)c(C)n1C1CC1 (centres undefined)	i	0.91	100
O=C(c1cc2ccccc2o1)N1CCN(Cn2ncc(Cl)c(Cl)c2=O)CC1	i	0.93	80
CCN(C(C)COC)S(=O)(=O)c1ccc(OC)c(Br)c1 (centres undefined)	i	1.1	102
Cc1cc(NC(=O)C(C)OC(=O)C23CC4CC(CC(Cl)(C4)C2)C3)on1 (centres undefined)	i	1.1	81
Cc1ccc(Cl)c2c1C(=O)CCO2	i	1.1	102
COC(=O)/C=C1/SCC(=O)N1CC(=O)N(C)C	i	1	95
Cc1cc(C(=O)COC(=O)C23CC4CC(CC(C4)C2)C3)c(C)n1Cc1ccc2c(c1)OCO2	i	1	108
Nc1nc(NC2CC2)c2ncn(C3C=C[C@@H](CO)C3)c2n1 (some centres undefined)	i	.	.	CFTR F508del fold 25 µM=0.99;CFTR F508del viability 25 µM=87
CCONC(=O)C(C)N1C(=O)C2CC=CCC2C1=O (centres undefined)	i	0.97	101
O=S(=O)(NC1(c2ccc(Br)cc2)CCOCC1)c1cccc(Cl)c1Cl	i	1	72
CCOC(=O)C1=C(COC(=O)c2ccc3ncsc3c2)NC(=O)NC1C (centres undefined)	i	0.96	86
CCCCCCCCCCCCCCCCn1c(SCCCC)nc2c1c(=O)[nH]c(=O)n2C	i	1.1	98
NC(=O)C1CCCCN1CC(=O)NC1CCCCC1 (centres undefined)	i	1	102
Cc1nc(CSCC(=O)NC2CCCCC2)cs1	i	1.2	97
CC(C)CN(CC(C)C)CN1C(=O)NC(C)(c2ccc(F)c(F)c2)C1=O (centres undefined)	i	1.1	91
Cc1cc(C(=O)CN2C(=O)NC(C)(c3cc4ccccc4o3)C2=O)c(C)n1C1CC1 (centres undefined)	i	1.1	103
S=c1[nH]nc(N2CCCC2)n1Cc1ccco1	i	1.2	92
CCN(CC(=O)NC(C)C)C(=O)c1ccc(S(=O)(=O)NC(C)(C)C)o1	i	0.93	102
CCN(CC)C(=S)SSC(=S)N(CC)CC	3.1	.	.	CFTR F508del fold 25 µM=2&1.4;CFTR F508del viability 25 µM=82&107
CC(C)c1nc(SC(C(=O)NC(N)=O)C(C)C)n[nH]1 (centres undefined)	i	1.1	95
CCN(CC)C(=O)c1cccnc1	i	.	.	CFTR F508del fold 25 µM=1;CFTR F508del viability 25 µM=83
Clc1ccccc1CSc1nnc(NC2CC2)s1	i	0.87	84
O=S(=O)(c1cccs1)N1CCOc2ccccc21	i	0.95	79
Cc1nc(C)c(CC(=O)NCCC(C)C)c(=O)[nH]1	i	1.1	94
CS(=O)(=O)c1ccc(N2CCC2)c([N+](=O)[O-])c1	i	1	92
Cc1cnc(C(=O)NCCc2ccc(S(=O)(=O)NC(=O)NC3CCCCC3)cc2)cn1	i	.	.	CFTR F508del fold 25 µM=0.98&1&1.1;CFTR F508del viability 25 µM=101&92&92
O[C@H](CNC[C@@H](O)[C@H]1CCc2cc(F)ccc2O1)[C@@H]1CCc2cc(F)ccc2O1	i	.	.	CFTR F508del fold 25 µM=0.61;CFTR F508del viability 25 µM=41
CC1CC(N2CCc3sccc3C2)C(=O)O1 (centres undefined)	i	1.2	91
Cc1cc(=O)n2nc(N(CC(C)C)C3CC3)sc2n1	i	1.1	102
O=S(=O)(NCCc1ccc(C(F)(F)F)cc1)N1CCCCCC1	i	0.85	85
CC(C)n1ncc2cc(NS(=O)(=O)c3cc(Cl)ccc3Cl)cnc21	i	0.95	95
Cc1cc2nc(N3CCN(S(=O)(=O)N4CCCCCC4)CC3)c3ccccc3n2n1	i	0.93	89
O=c1cc(CSCc2cc(Cl)c3c(c2)OCO3)nc2ccccn12	i	0.97	84
CS(=O)(=O)Cc1ccc(C(=O)OC2CCOC2=O)cc1 (centres undefined)	i	1	99
CNNCc1ccc(C(=O)NC(C)C)cc1	i	.	.	CFTR F508del fold 25 µM=1&1;CFTR F508del viability 25 µM=84&89
O=C(OCCOc1ccc(Cl)cc1Cl)c1n[nH]c(=O)c2ccccc12	i	1	92
CC1(NC(=O)CN2CCN(c3nccs3)CC2)CCS(=O)(=O)C1 (centres undefined)	i	1.1	92
O=C(NCCCN1CCCC1=O)Nc1ccc(F)cc1F	i	1.1	104
Clc1ccc(Cn2c(CN3CCCC3)nc3ccccc32)cc1	i	.	.	CFTR F508del fold 25 µM=1;CFTR F508del viability 25 µM=88
Cc1n[nH]c(C)c1S(=O)(=O)NC1CCCCCC1	i	0.96	91
CC(=O)N[C@@H](CC(=O)O)C(=O)N[C@@H](CCC(=O)O)C(=O)O	i	.	.	CFTR F508del fold 25 µM=0.99;CFTR F508del viability 25 µM=91
CC1Cc2ccccc2N1C(=O)C1=NN(C2CCS(=O)(=O)C2)C(=O)CC1 (centres undefined)	i	1.1	110
O=C(CN1C(=O)NC2(CCCCCCC2)C1=O)N1CCCCCCC1	i	1.1	85
CN(Cc1nc2ccsc2c(=O)[nH]1)C(=O)CCc1nnc(-c2ccsc2)o1	i	1.2	87
Cc1nn(-c2nc3ccccc3[nH]2)c(N)c1C(O)(c1nc2ccccc2s1)C(F)(F)F (centres undefined)	i	0.89	76
CC(C)NCC(O)COc1ccc(COCCOC(C)C)cc1 (centres undefined)	i	.	.	CFTR F508del fold 25 µM=1.1&1;CFTR F508del viability 25 µM=107&91
CN(C1CCCc2ccccc21)S(=O)(=O)c1ccc(S(C)(=O)=O)cc1 (centres undefined)	i	1	101
Clc1ccc(-n2c(SCSc3ncccn3)nnc2-c2ccccc2)cc1	i	0.93	83
C#CCNS(=O)(=O)c1cc(OC)c(OC)cc1Br	i	1.1	94
O=S(=O)(NCCC1=CCCCC1)C1=Cc2ccccc2CC1	i	0.78	84
CSc1ccc(NC(=O)C23CC4CC(CC(Cl)(C4)C2)C3)cc1	i	0.93	68
Cc1nn(-c2ccccc2)c2c1CC(C#N)(c1nc3ccccc3s1)C1CCCN21 (centres undefined)	i	1.3	89
NC(=O)C1(c2cccc(F)c2)CCC1	i	1	87
CCc1cc2c(CNC(C)c3cc(OC)ccc3OC)cc(=O)oc2cc1O (centres undefined)	i	1.1	101
O=S(=O)(Nc1cccc(F)c1)c1cc(Cl)sc1Cl	i	0.91	95
Cc1nn(-c2ccccc2)c(C)c1C1C(=O)NCCN1Cn1ncc2ccccc2c1=O (centres undefined)	i	1	88

Structural class, those above containing an aryl methoxy group
SMILES	CFTR F508del	CFTR F508del fold 10 ug/mL	CFTR F508del viability 10 ug/mL	others
COc1ccc(CNc2nc3sccn3c2[N+](=O)[O-])cc1OC	i	0.99	87
CCN(C(C)COC)S(=O)(=O)c1ccc(OC)c(Br)c1 (centres undefined)	i	1.1	102
C#CCNS(=O)(=O)c1cc(OC)c(OC)cc1Br	i	1.1	94
CCc1cc2c(CNC(C)c3cc(OC)ccc3OC)cc(=O)oc2cc1O (centres undefined)	i	1.1	101

Next part
SMILES	CFTR F508del	CFTR F508del fold 10 ug/mL	CFTR F508del viability 10 ug/mL	others
O=[N+]([O-])c1ccc(N2CCN(Cn3nnn(CC4CCCO4)c3=S)CC2)cc1 (centres undefined)	i	0.89	96
O=C(OCC(=O)N1CCNC1=O)c1ccc(OCC2CCCO2)cc1 (centres undefined)	i	1	105
Cc1cc(Cl)ccc1NC(=O)C12CCC(=O)N1c1ccccc1C(=O)N2C (centres undefined)	i	1	97
CSCCC1NC(=O)N(CCOc2cc(C)ccc2C)C1=O (centres undefined)	i	1	105
CC(C)N(C)S(=O)(=O)c1ccc(S(=O)(=O)N2CCCC2)cc1	i	0.95	89
